KCNK3 inh: human KCNK3 channel inhibition, primary screen. O14649. CHO-KCNK3 thallium flux, FluxOR fluorescence; active compounds read low. B-score at 10 µM. hit rate 0.84% among 340,000. AID 602410;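 active = B-score under library mean minus 4 SD, starting fluorescence ratio at most library mean plus 5 SD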;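 note: more negative B-score means stronger inhibition of thallium flux through KCNK3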
KCNQ1 pot: human KCNQ1 channel potentiation or activation; P51787; CHO-K1 KCNQ1, thallium flux FluxOR fluorescence; active compounds read high; B-score at 10 µM; hit rate 0.35% among 310,000;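 active = fluorescence ratio B-score, a plate-corrected score, at least three library SD, with initial intensity B-score within 5 SD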
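assay system = CHO-K1 cells stably expressing KCNQ1 | medium = assay buffer, equal DMSO in all wells | timing = 37 °C overnight plating, 90-min dark dye load, 20-min compound pretreatment | measured by = kinetic FluxOR thallium fluorescence, 10-s 1-Hz baseline, 110-s post-stimulus read | measure = fluorescence change relative to baseline, converted to B score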
HDAC3 inhib: blocks human histone deacetylase 3; O15379; recombinant HDAC3, fluorogenic peptide/trypsin coupled, fluorescence; inhibition, % at 8.3 µM; hit rate 0.15% among 320,000; in the data active = inhibition above about 26%, passing the limit was not always enough; inconclusive = no clear call, values can overlap the other calls
TRPC4 PAM: allosterically enhances the mouse TRPC4 cation channel. HEK293 TRPC4beta/mu-opioid, DAMGO EC20, Fluo-4 Ca2+ flux; active compounds read high. B-score at 10 µM. hit rate 0.42% among 310,000. AID 2227;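 active = B-score of calcium response area above 5 SD of library B-scores, with initial fluorescence ratio within 5 SD of library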;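 note: B-score of integrated fluorescence ratio over time as area under calcium response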
KCNQ1 block: inhibitors of human KCNQ1 potassium channel; CHO-K1 KCNQ1, FluxOR thallium flux fluorescence; active compounds read high; hit rate 1.3% among 310,000; P51787; B-score at 10 µM; AID 2642;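 active = compounds whose thallium flux B-score, printed positive for inhibition, exceeds three library SD while starting fluorescence stays within three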;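 note: channel opened by potassium depolarization with thallium stimulus after 20 min compound exposure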
TMEM16A act: activators or potentiators of mouse TMEM16A chloride channel. AID 623877. Q8BHY3. B-score at 10 µM. HEK293 TMEM16A/YFP-H148Q/I152L, iodide quench fluorescence; active compounds read low. hit rate 0.3% among 340,000;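 active = fluorescence-ratio B-score plate-corrected deviation score at least 3 library SD below zero, with starting fluorescence score within 5 deviations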;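 note: channel opened by trigger with iodide after compound preincubation; score built on the fluorescence ratio of max minus min over baseline; more negative score means more quench and so TMEM16A activation or potentiation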
TRPC4 agonist: TRPC4 (mouse) channel activation. HEK293 TRPC4beta/mu-opioid, Fluo4 calcium fluorescence; active compounds read high. B-score at 10 µM. hit rate 0.49% among 310,000;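 active = B-score above 5 SD of library B-scores, and initial fluorescence ratio not above library mean plus 5 SD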;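 note: positive B-score marks a calcium rise read as TRPC4 activation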
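Material: TRPC4beta and mu-opioid receptor HEK293 stable cells | Incubation: 45 min room-temperature Fluo4 loading, 110 s read | Detection: Kinetic Fluo4 calcium fluorescence | Measure: Integrated baseline-normalised fluorescence ratio, converted to per-well B score | Benchmarks: Low control buffer alone, high control maximal DAMGO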
ANO1 block: mouse TMEM16A channel inhibition, primary screen; Q8BHY3; HEK293 TMEM16A/YFP iodide influx fluorescence, ionomycin; normalized B-score (activity score, 25-100; higher = stronger inhibition) at 10 µM; hit rate 1.2% among 310,000; AID 588511;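 active = ratio plate-corrected score three or more library SD toward inhibition, starting fluorescence score within five deviations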;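 note: score derived from kinetic fluorescence span divided by baseline fluorescence per well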
hERG protect: hERG (human) protection from proarrhythmic block; Q12809; CHO-hERG, FluxOR thallium flux, dofetilide IC70 present; activation (rescue from dofetilide block), less the hit threshold, % at 10 µM; hit rate 0.51% among 310,000;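 active = activation above the mean of controls blocked by dofetilide plus 5 SD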;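 note: thallium influx through hERG after potassium depolarization seen as dye fluorescence rise; in these data hits start at about 4.7%; inactives centre near -7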
Target sequence (Q12809 whole entry, looked up): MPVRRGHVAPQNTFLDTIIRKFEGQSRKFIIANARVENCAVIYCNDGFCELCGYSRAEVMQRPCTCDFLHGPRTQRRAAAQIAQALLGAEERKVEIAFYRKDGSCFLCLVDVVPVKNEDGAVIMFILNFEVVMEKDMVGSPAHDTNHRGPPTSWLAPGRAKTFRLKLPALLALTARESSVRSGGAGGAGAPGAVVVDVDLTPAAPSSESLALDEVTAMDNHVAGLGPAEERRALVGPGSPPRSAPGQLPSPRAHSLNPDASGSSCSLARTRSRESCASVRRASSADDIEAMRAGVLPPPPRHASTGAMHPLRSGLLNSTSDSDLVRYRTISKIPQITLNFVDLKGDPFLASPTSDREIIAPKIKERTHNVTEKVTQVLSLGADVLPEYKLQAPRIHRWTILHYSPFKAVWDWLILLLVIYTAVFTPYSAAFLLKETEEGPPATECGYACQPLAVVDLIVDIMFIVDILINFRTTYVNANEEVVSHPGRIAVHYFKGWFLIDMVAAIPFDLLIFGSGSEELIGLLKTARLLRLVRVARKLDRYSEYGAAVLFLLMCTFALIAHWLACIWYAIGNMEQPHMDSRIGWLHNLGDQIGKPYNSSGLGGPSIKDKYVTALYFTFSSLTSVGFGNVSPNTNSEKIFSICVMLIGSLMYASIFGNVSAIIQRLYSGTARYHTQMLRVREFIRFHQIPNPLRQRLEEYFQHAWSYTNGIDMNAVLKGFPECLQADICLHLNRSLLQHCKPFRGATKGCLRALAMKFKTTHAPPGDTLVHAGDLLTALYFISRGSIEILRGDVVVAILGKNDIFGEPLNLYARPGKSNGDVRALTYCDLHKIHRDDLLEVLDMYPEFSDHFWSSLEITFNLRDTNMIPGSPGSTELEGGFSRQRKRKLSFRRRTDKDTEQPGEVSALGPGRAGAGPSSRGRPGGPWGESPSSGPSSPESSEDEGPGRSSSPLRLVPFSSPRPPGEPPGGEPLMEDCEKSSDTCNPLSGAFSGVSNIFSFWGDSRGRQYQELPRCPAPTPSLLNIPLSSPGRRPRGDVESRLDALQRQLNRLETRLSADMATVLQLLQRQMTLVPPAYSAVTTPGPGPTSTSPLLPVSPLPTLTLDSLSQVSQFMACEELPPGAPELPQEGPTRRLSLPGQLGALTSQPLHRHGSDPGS
KCNK9 inh: human KCNK9 channel inhibition; HEK293 KCNK9, FluxOR thallium flux fluorescence; active compounds read low; B-score at 10 µM; hit rate 1.2% among 310,000;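 active = ratio B-score over 3 SD below the library mean, with starting fluorescence within 5 SD of its mean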;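 note: negative B-score means less thallium flux so channel inhibition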
Numbers without * were called inactive; i = inactive; ? = inconclusive; / = not tested or not shown.

Key to letters: A = KCNK3 inh; B = KCNQ1 pot; C = HDAC3 inhib; D = TRPC4 PAM; E = KCNQ1 block; F = TMEM16A act; G = TRPC4 agonist; H = ANO1 block; I = hERG protect; J = KCNK9 inh
Structure: O=C(/C=C/c1ccc2c(c1)OCO2)NCc1ccncc1
  A: i; B: i; C: 3; D: i; E: i; F: i; G: i; H: i; I: -5; J: i
Structure: CCOC(=O)NCC(C)(C)CNC(=O)OCC
  A: i; B: i; C: 3; D: i; E: i; F: i; G: i; H: i; I: -6; J: i
Structure: Cc1ncccc1C(=O)N1CCCC(CNC(=O)C2(c3ccc(Cl)cc3)CC2)C1 (stereo unspecified)
  A: i; B: i; C: -1; D: i; E: i; F: i; G: i; H: i; I: -11; J: i
Structure: CCn1c(CCNC(=O)c2ccc(Cl)cc2)nnc1SCC(=O)NC1CCCC1
  A: i; B: i; C: 4; D: i; E: i; F: i; G: i; H: i; I: -13; J: i
Structure: COc1ccc(CNC(=O)C2CC(c3ccc(F)cc3)=NO2)cc1 (stereo unspecified)
  A: i; B: i; C: -6; D: i; E: i; F: i; G: i; H: i; I: -9; J: i
Structure: COc1ccc(C2CC2/C(C)=N/OC(=O)c2cccs2)cc1 (stereo unspecified)
  A: i; B: i; C: 1; D: i; E: i; F: i; G: i; H: i; I: -10; J: i
Structure: COc1cc(/C=C2\SC(=O)NC2=O)ccc1OCc1ccc(Cl)nc1
  A: i; B: i; C: -4; D: i; E: i; F: i; G: i; H: i; I: -4; J: i
Structure: COc1cc(/C=C2\SC(=O)NC2=O)ccc1Oc1ccc([N+](=O)[O-])cn1
  A: i; B: i; C: -4; D: i; E: i; F: i; G: i; H: i; I: -6; J: i
Structure: CCOC(=O)c1cc(-c2ccccc2)nn1CC1CC(c2ccc(Cl)cc2)=NO1 (stereo unspecified)
  A: i; B: i; C: -7; D: i; E: i; F: i; G: i; H: i; I: -16; J: i
Structure: CCC(CC)NC(=O)COC(=O)c1ccc(NS(=O)(=O)c2ccc3c(c2)OCCO3)cc1
  A: i; B: i; C: 1; D: i; E: i; F: i; G: i; H: i; I: -12; J: i
Structure: COc1ccc2c(c1)CC1c3c(cc4c(c3-2)OCO4)CC[N+]1(C)[O-] (stereo unspecified)
  A: i; B: i; C: -3; D: i; E: i; F: i; G: i; H: i; I: -8; J: i
Structure: COC(=O)C1C(O)=C(C=Nc2cccc3ccccc23)C(=O)CC1(C)C (stereo unspecified)
  A: i; B: i; C: 4; D: i; E: i; F: i; G: i; H: i; I: -7; J: i
Structure: CCC(C)(C)n1nnnc1C(c1ccc2ncccc2c1)N1CCN2CCCC2C1 (stereo unspecified)
  A: i; B: i; C: -3; D: i; E: i; F: i; G: i; H: i; I: -1; J: i
Structure: COc1ccccc1-n1c(=O)[nH]c2c(C(N)=O)nc(C3CCCCC3)nc21
  A: i; B: i; C: 0; D: i; E: i; F: i; G: i; H: i; I: -5; J: i
Structure: C/C=C/c1ccc(Oc2nnnn2-c2ccc(C(=O)O)cc2)c(OC)c1
  A: i; B: i; C: 10; D: i; E: i; F: i; G: i; H: i; I: -15; J: i
Structure: COc1ccccc1-n1c(-c2ccc(NS(C)(=O)=O)cc2)n[nH]c1=S
  A: i; B: i; C: ?; D: i; E: i; F: i; G: i; H: i; I: -3; J: i
Structure: CCSC1=N/C(=C\c2ccc(OC)cc2)C(=O)N1
  A: i; B: i; C: -3; D: 86*; E: i; F: i; G: i; H: i; I: -7; J: i
Structure: N#CC(c1ccccn1)(c1ncc(C(F)(F)F)cc1Cl)N1CCOCC1 (stereo unspecified)
  A: i; B: i; C: -2; D: i; E: i; F: i; G: i; H: i; I: -8; J: i
Structure: COC(=O)C1=C(C)NC(=O)NC1c1cc(Cl)ccc1OC (stereo unspecified)
  A: i; B: i; C: 3; D: i; E: i; F: i; G: i; H: i; I: -12; J: i
Structure: Cc1ccc(S(=O)(=O)N2CCC(C(=O)N[C@H](C(=O)NCC3CCCO3)C(C)C)CC2)cc1 (stereo partly specified)
  A: i; B: i; C: 0; D: i; E: i; F: i; G: i; H: i; I: -8; J: i
Structure: CCc1n[nH]c(=S)n1/N=C/c1ccc2c(c1)OCO2
  A: i; B: i; C: -1; D: i; E: i; F: i; G: i; H: i; I: 3; J: i
Structure: COc1ccc2cc(C#N)c(N3CCN(C(=O)c4ccccc4C)CC3)nc2c1
  A: i; B: i; C: -3; D: i; E: i; F: i; G: i; H: i; I: -12; J: i
Structure: Cc1cc2c(C)cc(=O)oc2c2c1NCCC2
  A: i; B: i; C: -94; D: i; E: i; F: i; G: i; H: i; I: -8; J: i
Structure: O=C(c1cc(-c2ccccc2)nn1CC1CC(c2cccnc2)=NO1)N1CCOCC1 (stereo unspecified)
  A: i; B: i; C: 10; D: i; E: i; F: i; G: i; H: i; I: -5; J: i
Structure: COc1ccc2nc(NC(=O)C3CCN(S(=O)(=O)c4cccnc4)CC3)sc2c1
  A: i; B: i; C: 3; D: i; E: i; F: i; G: i; H: i; I: -9; J: i
Structure: Cc1c(/C=N/NC(N)=O)c2ccccn2c1C(=O)c1ccc(F)cc1
  A: i; B: i; C: 8; D: i; E: i; F: i; G: i; H: i; I: -2; J: i
Structure: O=C(NCc1ccccn1)C1CCN(S(=O)(=O)N2CCCCC2)CC1
  A: i; B: i; C: -1; D: i; E: i; F: i; G: i; H: i; I: 1; J: i
Structure: CC(=O)Nc1ccnc(-c2cccnc2)n1
  A: i; B: i; C: -5; D: i; E: i; F: i; G: i; H: i; I: -8; J: i
Structure: CCN1/C(=C\C(C)=O)Sc2ccc(OC)cc21
  A: i; B: i; C: -3; D: i; E: i; F: i; G: i; H: i; I: 3; J: i
Structure: Oc1ccc(N2CCN(C(c3ccncc3)c3nnnn3C3CCCC3)CC2)cc1 (stereo unspecified)
  A: i; B: i; C: 7; D: i; E: i; F: i; G: i; H: i; I: -6; J: i
Structure: CCOC(=O)N1CCN(C(=O)Nc2ccc3nc(C)c(C)nc3c2)CC1
  A: i; B: i; C: -9; D: i; E: i; F: i; G: i; H: i; I: -5; J: i
Structure: COc1cc(C(=O)Nc2c(C(=O)O)[nH]c3ccc(Br)cc23)cc(OC)c1OC
  A: i; B: i; C: 5; D: i; E: i; F: i; G: i; H: i; I: -6; J: i
Structure: Cc1nc2nc(SCC(=O)O)nn2c(C)c1Cc1c(F)cccc1Cl
  A: i; B: i; C: 13; D: i; E: i; F: i; G: i; H: i; I: 0; J: i
Structure: CCOc1ccc2nc(NC(=O)CN3C(=O)C4CCCCC4C3=O)sc2c1 (stereo unspecified)
  A: i; B: i; C: 5; D: i; E: i; F: i; G: i; H: i; I: -17; J: i
Structure: C/C(=N\NC(=O)c1ccc(NS(=O)(=O)c2cccs2)cc1)c1ccc(Cl)cc1
  A: i; B: i; C: 10; D: i; E: i; F: i; G: i; H: i; I: -13; J: i
Structure: Nc1nc(=S)[nH]c2c1C1(CCCC1)Cc1ccccc1-2
  A: i; B: i; C: 3; D: i; E: i; F: i; G: i; H: i; I: 6.1*; J: i
Structure: Cc1cc2n(n1)C(c1ccccc1Cl)Nc1ccccc1-2 (stereo unspecified)
  A: i; B: i; C: -1; D: i; E: i; F: i; G: i; H: i; I: -19; J: i
Structure: COC(=O)CCC(=O)COc1ccc(OC)cc1C#N
  A: i; B: /; C: 5; D: /; E: /; F: i; G: /; H: i; I: /; J: /
Structure: CCS(=O)(=O)N1CCC(C(=O)NCc2ccccn2)CC1
  A: i; B: i; C: 0; D: i; E: i; F: i; G: i; H: i; I: 1; J: i
Structure: COc1cc(-c2cc(=O)c3ccccc3o2)ccc1O
  A: i; B: i; C: -1; D: i; E: i; F: i; G: i; H: i; I: -13; J: i
Structure: O=C(C1COc2ccccc2O1)N1CCCC1 (stereo unspecified)
  A: i; B: i; C: -11; D: i; E: i; F: i; G: i; H: i; I: -11; J: i
Structure: Cc1cccc(C)c1Nc1nnc(SCC(=O)Nc2sccc2C#N)s1
  A: i; B: i; C: 1; D: i; E: i; F: i; G: i; H: i; I: -6; J: i
Structure: Cc1cccc(-n2nnc(C(=O)N3CCc4ccccc4C3)c2N)c1
  A: i; B: i; C: 3; D: i; E: i; F: i; G: i; H: i; I: -13; J: i
Structure: C[C@H](NS(=O)(=O)c1ccc(Cl)cc1)C(=O)OCC(=O)c1ccc[nH]1
  A: i; B: i; C: 1; D: i; E: i; F: i; G: i; H: i; I: -13; J: i
Structure: O=C(c1ccco1)N1CCN(c2ncnc3sc4c(c23)CCC4)CC1
  A: i; B: i; C: 6; D: i; E: i; F: i; G: i; H: i; I: -7; J: i
Structure: CS(=O)(=O)c1ccc2nc(NC(=O)C3CC(=O)N(c4ccc(F)cc4)C3)sc2c1 (stereo unspecified)
  A: i; B: i; C: 1; D: i; E: i; F: i; G: i; H: i; I: 0; J: i
Structure: CCOC(=O)CCCc1sc(N)nc1-c1[nH]c(=O)[nH]c1C
  A: i; B: i; C: 3; D: i; E: i; F: i; G: i; H: i; I: 1; J: i

Two entries picked at random from those above:
Key to letters: A = KCNK3 inh; B = KCNQ1 pot; C = HDAC3 inhib; D = TRPC4 PAM; E = KCNQ1 block; F = TMEM16A act; G = TRPC4 agonist; H = ANO1 block; I = hERG protect; J = KCNK9 inh
Structure: C/C(=N\NC(=O)c1ccc(NS(=O)(=O)c2cccs2)cc1)c1ccc(Cl)cc1
  A: i; B: i; C: 10; D: i; E: i; F: i; G: i; H: i; I: -13; J: i
Structure: CCOc1ccc2nc(NC(=O)CN3C(=O)C4CCCCC4C3=O)sc2c1 (stereo unspecified)
  A: i; B: i; C: 5; D: i; E: i; F: i; G: i; H: i; I: -17; J: i

An excerpt from above with just HDAC3 inhib.
smiles	HDAC3 inhib
C/C=C/c1ccc(Oc2nnnn2-c2ccc(C(=O)O)cc2)c(OC)c1	10
COc1ccccc1-n1c(-c2ccc(NS(C)(=O)=O)cc2)n[nH]c1=S	?
CCSC1=N/C(=C\c2ccc(OC)cc2)C(=O)N1	-3
N#CC(c1ccccn1)(c1ncc(C(F)(F)F)cc1Cl)N1CCOCC1 (stereo unspecified)	-2
COC(=O)C1=C(C)NC(=O)NC1c1cc(Cl)ccc1OC (stereo unspecified)	3
Cc1ccc(S(=O)(=O)N2CCC(C(=O)N[C@H](C(=O)NCC3CCCO3)C(C)C)CC2)cc1 (stereo partly specified)	0

Whole records, looked up by structure.
`CCS(=O)(=O)N1CCC(C(=O)NCc2ccccn2)CC1` is entered as KCNK3 inh: i; KCNQ1 pot: i; HDAC3 inhib: 0; TRPC4 PAM: i; KCNQ1 block: i; TMEM16A act: i; TRPC4 agonist: i; ANO1 block: i; hERG protect: 1; KCNK9 inh: i
`Cc1cccc(-n2nnc(C(=O)N3CCc4ccccc4C3)c2N)c1` is entered as KCNK3 inh: i; KCNQ1 pot: i; HDAC3 inhib: 3; TRPC4 PAM: i; KCNQ1 block: i; TMEM16A act: i; TRPC4 agonist: i; ANO1 block: i; hERG protect: -13; KCNK9 inh: i

These rows are one share of the data (hit frequency here may not be typical).
